ClpP mod: qHTS Assay for Activators of ClpP; ATP-dependent Clp protease proteolytic subunit (Bacillus subtilis (strain 168)), P80244; Potency, µM (series often up to 57.5 µM), for the others: top-dose activity change, negative = active; purified B. subtilis ClpP, FRET peptide cleavage, 20 min; 340,000 compounds, 1.9% hits; active = well fitted falling curve with a large enough effect; inconclusive = small, poorly fitted or top-dose-only effect; inactive = no such curve, though single readings can be large or run the other way; further: the source files actives as falling curves though it sought activators and does not explain the sign; nearly all actives have a fitted effect of over 65% in size; many hits overshoot -100%
Target sequence (P80244 whole entry, looked up): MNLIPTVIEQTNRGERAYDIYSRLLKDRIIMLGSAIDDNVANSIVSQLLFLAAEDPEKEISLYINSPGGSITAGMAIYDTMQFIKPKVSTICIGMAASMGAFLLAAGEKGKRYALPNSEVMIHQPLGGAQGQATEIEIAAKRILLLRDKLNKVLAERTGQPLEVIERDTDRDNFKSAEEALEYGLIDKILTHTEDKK
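Buffer: 100 mM Tris/HCl pH8, 100 mM KCl, 0.05% low protease BSA, 2.5% glycerol, 0.01% Tween-20. ClpP 10 microg/mL final; 20 min RT; delta FRET normalized to ADEP and DMSO controls.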
* marks the source's active call; other numbers are inactive results; ? = inconclusive. Potency means the concentration at half of the fitted maximal effect. An excerpt; the hit share may differ from the screen's.

SMILES	ClpP mod
Cc1ccc(CNC(=O)CCc2c(C)nc3nc(C)nn3c2C)cc1	-3.8%
Cc1ccc(S(=O)(=O)Nc2ccccc2C(C(=O)OC(C)(C)C)C(=O)OC(C)(C)C)cc1	2.1%
CCOc1ccc(C(=O)N2CCN(Cc3cc(=O)n4nc(-c5ccccc5Cl)sc4n3)CC2)cc1	-9.5%
Cc1ccn2c(Nc3ccccc3)c(-c3c[nH]c4ccccc34)nc2c1	4.1%
CCCCCn1nnnc1-c1nc2cc(C)c(C)cc2[nH]c1=O	?
Cc1c(NC(=O)c2ccc(-c3ccc(F)cc3)o2)cccc1-c1nc2ncccc2o1	-10%
CC(=O)c1ccc(N2C(=O)N(Cc3ccc(F)cc3)c3ccccc3S2(=O)=O)cc1	-2.3%
COc1ccc(Cl)cc1S(=O)(=O)N1CCC(c2ccncc2)CC1	-0.1%
CCOc1ccc(CCNC(=O)c2cnc3sc(N4CCOCC4)nn3c2=O)cc1	?
CCOC(=O)c1c(NC(=O)CSc2cn(CCNC(=O)c3ccc(OCC)cc3)c3ccccc23)sc2c1CCCC2	-6.3%
Clc1cccc(CNc2ncnc3c2nc2n3CCCC2)c1	-3.3%
CC(=O)c1cccc(Nc2cc(C)nc3nc(-c4ccccc4C)nn23)c1	-2.4%
Cc1cc(C)n2c(NCc3ccccc3)c(-c3cc4ccccc4o3)nc2n1	-1.2%
Cc1cccc(-c2nc(CN3CCCC(C(=O)NCCc4ccc(Cl)cc4)C3)c(C)o2)c1 (centres undefined)	2.0%
CCOC(=O)c1cnc2ccc(C(=O)OC)cc2c1Nc1ccc(N2CCOCC2)cc1	-1.5%
Cc1cc(F)ccc1S(=O)(=O)Nc1ccc2oc3c(c2c1)CC(C)CC3 (centres undefined)	-5.7%
CCOc1ccc(CCNC(=O)c2c(C)oc3ncn(C)c(=O)c23)cc1	-3.6%
CCC1=Nc2cc(C(=O)NCCc3ccccc3)ccc2Sc2ccc(Cl)cc21	-2.6%
COc1ccc(OC)c(-c2nnc3n(Cc4ccc(C)cc4)c(=O)c4ccccc4n23)c1	20%
COc1ccc(OC)c(NC(=O)[C@H](CSCc2ccccc2)N2Cc3ccccc3C2=O)c1	-0.1%
COc1cccc(CCNC(=O)Cn2c(-c3cccs3)cc3ccccc32)c1	4.4%
CCNC(=O)CC1C(=O)N(c2ccccc2)C(=O)N1Cc1ccc(F)cc1 (centres undefined)	-1.3%
Cc1ccc(C)c(NC(=O)CSc2ncc3c(n2)-c2ccc(Cl)cc2N(C)S3(=O)=O)c1	4.6%
Cc1ccc(S(=O)(=O)n2nc(C)c(S(=O)(=O)N3CCCCCC3)c2C)cc1C	-1.1%
COc1ccc(Cl)cc1NC(=O)CCc1c(C)nc2c(c1C)c(=O)n(C)c(=O)n2C	0.0%
O=C(C[C@@H]1CC[C@@H]2[C@H](COC[C@H](O)CN2S(=O)(=O)c2ccccc2)O1)Nc1ccccc1	-2.6%
CNS(=O)(=O)c1cn(CC(=O)Nc2ccc(OC)c(Cl)c2)cc1S(=O)(=O)NC	-5.6%
COc1cc2nc(SCc3ccc(C)cc3)n3nc(CCn4nc(C)cc4C)nc3c2cc1OC	0.4%
O=C(NCc1cccc(F)c1)c1ccc2nc(CCc3ccccc3)oc2c1	-1.8%
O=C(Nc1ccc(F)cc1)C(CCc1ccccc1)N1CCN(Cc2c(F)cccc2Cl)CC1 (centres undefined)	-0.3%
CCOc1ccc(CCNCc2c(C(=O)O)n(Cc3ccc(C)cc3)c3cc(OC)ccc23)cc1	-13%
CCCCNc1sc(S(=O)(=O)CC)nc1S(=O)(=O)c1ccc(C)cc1	-0.5%
CN(C(=O)Cn1c(=O)n(Cc2ccc(C(=O)NCc3ccc4c(c3)OCO4)cc2)c(=O)c2ccccc21)c1ccccc1	3.5%
COc1ccc(-c2nc(CCNC(=O)Cc3ccc(F)cc3)cs2)cc1	22µM*
COc1ccc(CNC(=O)Cn2ccc3cc(S(=O)(=O)N4CCCCC4)ccc32)cc1OC	-3.5%
COc1ccc(CC(=O)NCCc2csc(-c3ccc(Cl)cc3)n2)cc1	-14%
O=C(CSc1nc2c([nH]c3ccccc32)c(=O)n1-c1ccc(Cl)cc1)N1CCCCCC1	-6.4%
Cc1nc2sc(C(=O)N(C)Cc3ccccc3)c(NC(=O)c3ccccc3)c2c(C)c1Cl	2.1%
CC(=O)c1cccc(-n2c(=O)c3c4c(sc3n(CC(=O)Nc3ccccc3F)c2=O)CN(C(C)=O)CC4)c1	1.2%
CCC1CCCCN1C(=O)CSc1n[nH]c(-c2ccccc2Cl)n1 (centres undefined)	-0.6%
CCC1CN(C(=O)C2CCN(S(=O)(=O)c3c(C)noc3/C=C/c3ccccc3F)CC2)c2cc(Cl)ccc2O1 (centres undefined)	4.4%
CCOC(=O)COc1ccc([N+](=O)[O-])cc1-c1ccnc2cc(-c3ccc(Cl)cc3)nn12	-0.9%
c1coc(-c2nc3n(n2)C2(CCCCC2)[C@@H]2CCCC[C@@H]2N3)c1	-6.8%
O=C(Cn1c(=O)c(C(F)(F)F)nc2ccccc21)Nc1ccc(Br)cc1F	-3.7%
CCOc1cc(C(=O)OCc2cc(=O)n3c(C)csc3n2)cc(OCC)c1OCC	-7.9%
CCOc1ccc(C(=O)Nc2ccc3oc(-c4ccc(Br)cc4)nc3c2)cc1	-3.2%
CCN(CC)CCN(C(=O)c1ccco1)c1nc2ccc(Cl)cc2s1	-2.9%
COc1cccc(-n2ccn(CC(=O)c3ccc(F)cc3)c(=O)c2=O)c1	-3.1%
COc1ccc(/C=C/C(=O)Nc2sc(C)c(C)c2C(=O)O)cc1	-0.4%
COc1cc(OC)c(NC(=O)Nc2c(C)n(C)n(-c3ccccc3)c2=O)cc1Cl	0.5%

The list goes on.
SMILES	ClpP mod
CCC(C)NC(=O)CCSc1nc(-c2ccc3c(c2)OCO3)cc(C(F)(F)F)n1 (centres undefined)	-23%
O=C(Nc1ccc(Oc2ccccc2)cc1)c1ccc(F)c(S(=O)(=O)N2CCN(c3ccccc3F)CC2)c1	-14%
O=C(Cc1ccccc1)NCC(=O)OCC(=O)c1ccc2ccccc2c1	28µM*
COC(=O)[C@]12CCCCC=C1N(Cc1ccccc1)C(=O)[C@H](CC(=O)NCc1cccs1)C2	-6.8%
CC1(C)OC(=O)C2=C(C[C@@H](CCOCc3ccccc3)O[C@@H]2c2ccc(F)cc2)O1	0.0%
COc1ccc2[nH]c(=O)c(CN(C(=O)c3cccc(Cl)c3)c3ccccc3OC)cc2c1	-22%
CCc1ccc(NC(=O)c2cc(S(=O)(=O)N3CCCCC3)c[nH]2)cc1	3.0%
COc1cccc(OCc2cc(=O)n3c(-c4ccccc4)csc3n2)c1	1.7%
COc1ccc(C(=O)NCC(c2cccnc2)N2CCc3ccccc32)cc1OC (centres undefined)	3.1%
O=C(NCCc1ccccc1)c1ccc2c(c1)N(Cc1ccccc1)C(=O)c1ccccc1S2(=O)=O	-2.9%

Shown in CSV form: entries from further up
structure,ClpP mod
CCOc1ccc(C(=O)Nc2ccc3oc(-c4ccc(Br)cc4)nc3c2)cc1,-3.2%
CCN(CC)CCN(C(=O)c1ccco1)c1nc2ccc(Cl)cc2s1,-2.9%
COc1cccc(-n2ccn(CC(=O)c3ccc(F)cc3)c(=O)c2=O)c1,-3.1%
COc1ccc(/C=C/C(=O)Nc2sc(C)c(C)c2C(=O)O)cc1,-0.4%
COc1cc(OC)c(NC(=O)Nc2c(C)n(C)n(-c3ccccc3)c2=O)cc1Cl,0.5%
CCC(C)NC(=O)CCSc1nc(-c2ccc3c(c2)OCO3)cc(C(F)(F)F)n1 (centres undefined),-23%
O=C(Nc1ccc(Oc2ccccc2)cc1)c1ccc(F)c(S(=O)(=O)N2CCN(c3ccccc3F)CC2)c1,-14%
O=C(Cc1ccccc1)NCC(=O)OCC(=O)c1ccc2ccccc2c1,28µM*
COC(=O)[C@]12CCCCC=C1N(Cc1ccccc1)C(=O)[C@H](CC(=O)NCc1cccs1)C2,-6.8%
CC1(C)OC(=O)C2=C(C[C@@H](CCOCc3ccccc3)O[C@@H]2c2ccc(F)cc2)O1,0.0%
COc1ccc2[nH]c(=O)c(CN(C(=O)c3cccc(Cl)c3)c3ccccc3OC)cc2c1,-22%
CCc1ccc(NC(=O)c2cc(S(=O)(=O)N3CCCCC3)c[nH]2)cc1,3.0%
COc1cccc(OCc2cc(=O)n3c(-c4ccccc4)csc3n2)c1,1.7%
COc1ccc(C(=O)NCC(c2cccnc2)N2CCc3ccccc32)cc1OC (centres undefined),3.1%
O=C(NCCc1ccccc1)c1ccc2c(c1)N(Cc1ccccc1)C(=O)c1ccccc1S2(=O)=O,-2.9%

(continued)
SMILES	ClpP mod
CCC(=O)Nc1ccc(-c2nnc(SCc3ccccc3)n2C)cc1	-2.9%
O=C(c1cc(-c2ccc(Br)cc2)n[nH]1)N1CCN(S(=O)(=O)c2ccc(Br)s2)CC1	0.4%
CC(C)(O)C#Cc1ccc(N2C(c3ccsc3)=Cc3ccc(F)cc3C2c2c[nH]c3ccc(C#N)cc23)cc1 (centres undefined)	4.2%
Cc1ccc(NC(=O)Cn2cc3c(n2)CCCC3)c(Cl)c1	-1.1%
Cc1cc(C)c2c(CC(=O)N3CCN(c4cccc(Cl)c4)CC3)coc2c1	0.0%
COc1ccccc1N1CCN(c2ncccc2-c2nc(-c3ccc(Cl)cc3)no2)CC1	-2.3%
Cc1cccc(NC(=O)CSc2nc(-c3cccs3)cc(C(F)(F)F)c2C#N)c1C	-12%
COc1ccc(C2=C(N3CCN(c4cccc(C)c4)C(C)C3)c3ccccc3C2=O)cc1 (centres undefined)	-2.3%
CC1=C(c2ccc(C)cc2)S(=O)(=O)N(Cc2ccc(C(=O)Nc3ccc(C)c(F)c3)cc2)C1=O	-23%
CC(C)[C@@H]1Cc2[nH][nH]c(=O)c2[C@H](C(C)C)O1	-0.9%
O=C(Nc1c(C(=O)N2CCN(c3ccccc3)CC2)oc2ccccc12)c1ccccc1F	?
COc1ccc2oc(=O)c(C(=O)NCCc3c(C)[nH]c4ccc(F)cc34)cc2c1	-2.6%
O=C1CC(c2nnc(Cc3c(F)cccc3Cl)o2)CN1c1ccccc1 (centres undefined)	-3.9%
COc1cccc(CNC(=O)c2cc3c(=O)oc4ccc(C)cc4c3s2)c1	-28%
COc1cc2c(=O)n(CCC(=O)NCC3CCCO3)c(=O)n(CC(=O)Nc3c(C)cccc3C)c2cc1OC (centres undefined)	?
CCOC(=O)[C@]12CCCC=C1N(Cc1ccc(Cl)cc1Cl)C(=O)[C@H](CC(=O)N1CCCC1)C2	0.4%
COc1ccc(NC(=O)c2cc(-c3ccccc3F)no2)cc1	?
COc1cccc(CNC(=O)CCc2c(C)nc3c(c(C)nn3-c3ccc(C)c(C)c3)c2C)c1	?
CS(=O)(=O)c1ccc2nc(NC(=O)CS(=O)(=O)c3ccc(Cl)cc3)sc2c1	-7.4%
COc1cccc2cc(-c3nc(-c4ccccc4)c(C)s3)c(=O)oc12	-3.9%
O=C(CSc1nc2c(oc3ccccc32)c(=O)n1-c1ccccc1)Nc1ccc(F)c(Cl)c1	-2.3%
Cc1ccc(Cl)cc1NC(=O)c1csnn1	-3.8%
COc1ccccc1-c1c(C)nn2c(N3CCN(c4ccc(Cl)cc4)CC3)cc(C)nc12	?
COc1ccc(C(=O)Nc2ccc(-c3nc4ccccc4s3)c(Cl)c2)cc1Cl	4.0%
CCc1ccc(C2c3c(-c4ccccc4)n[nH]c3C(=O)N2c2ccc(C(=O)O)cc2)cc1 (centres undefined)	0.0%
CCN(CC)c1ccc2cc(-c3nc(-c4ccc(Cl)cc4Cl)cs3)c(=O)oc2c1	-4.3%
COc1ccc(-c2cn3c(n2)sc2cc(C(=O)NCc4ccccc4OC)ccc23)cc1	?
Cc1oc(C)c2c(=O)cc(-c3ccc4c(c3)OCO4)cc(OC(=O)c3cccc(Cl)c3)c12	-3.4%
CCc1ccc(-n2c(=O)c3ccccc3n(CC(=O)NCCc3ccc(OC)c(OC)c3)c2=O)cc1	-6.2%
Cc1cccc(Cn2c(SCc3ccc(C(=O)NCc4ccccc4)cc3)nc3cccnc32)c1	4.2%
O=C(Cn1ncc2c3ccccc3n(Cc3cccc(Cl)c3)c2c1=O)Nc1ccc(F)cc1F	-12%
CCCCn1c(=O)c2oc3ccccc3c2n(CC(=O)Nc2cccc(Cl)c2C)c1=O	-3.4%
CCN(c1ccccc1)c1nnc(NC(=O)Nc2ccc(C)cc2)s1	0.0%
CCc1ccc(-c2cc(C)no2)cc1S(=O)(=O)N1CCN(c2cccc(Cl)c2)CC1	-7.6%
CC1=C(c2ccc(Cl)cc2)S(=O)(=O)N=C1N1CCC(C(=O)NCc2ccccc2F)CC1	-1.1%
O=C(C(=O)N1CCC(c2ccccc2)CC1)c1cccc([N+](=O)[O-])c1	0.6%
CCOc1ccc(CNC(=O)c2ccc3c(c2)sc2nc(-c4ccccc4)cn23)cc1	?
COC(=O)[C@]12CCCCC=C1N(Cc1ccc(Cl)cc1Cl)C(=O)[C@H](CC(=O)N1CCN(C(=O)c3ccco3)CC1)C2	-2.2%
Cc1nn(CC(=O)NCc2ccco2)c(=O)c2nn(-c3ccccc3)c(C)c12	-3.1%
CC(=O)c1cccc(NC(=O)Cn2nc(C)n3cccc3c2=O)c1	-3.1%
CCOc1ccc(OCC)c(NC(=O)C2CCCN(S(=O)(=O)c3ccc4c(c3)oc(=O)n4C)C2)c1 (centres undefined)	-9.0%
CCOc1ccccc1-c1noc(CCCC(=O)Nc2cccc(C(F)(F)F)c2)n1	-2.0%
CC1N=C2c3ccccc3N=C(SCC(=O)NCc3ccc(Cl)cc3)N2C1=O (centres undefined)	4.1%
CC(=O)c1ccc(NC(=O)c2noc3c2CSc2ccccc2-3)cc1	-2.6%
O=C(CSc1nc2ccsc2c(=O)n1Cc1ccc(F)cc1)NCc1ccc(Cl)cc1	0.2%
COC(=O)c1c(Oc2ccc(C(C)=O)cc2)nnc(-c2ccccc2)c1-c1ccccc1	-7.0%
